From PubChem
D2 agonist: activates the human D2 dopamine receptor | AID 624465 | P14416 | actives 0.084% (n = 360,000) | DiscoveRx PathHunter D2 beta-arrestin, luminescence, 90 min; 100% = 57 uM dopamine signal | activation, % (no concentration beside the values); in the data active = activation above about 40%; inconclusive = about 15% to 40%; inactive = below about 15%; also: compound concentration not given in the record; the text of the record calls up to 30% inactive
Target sequence (P14416 whole entry, looked up): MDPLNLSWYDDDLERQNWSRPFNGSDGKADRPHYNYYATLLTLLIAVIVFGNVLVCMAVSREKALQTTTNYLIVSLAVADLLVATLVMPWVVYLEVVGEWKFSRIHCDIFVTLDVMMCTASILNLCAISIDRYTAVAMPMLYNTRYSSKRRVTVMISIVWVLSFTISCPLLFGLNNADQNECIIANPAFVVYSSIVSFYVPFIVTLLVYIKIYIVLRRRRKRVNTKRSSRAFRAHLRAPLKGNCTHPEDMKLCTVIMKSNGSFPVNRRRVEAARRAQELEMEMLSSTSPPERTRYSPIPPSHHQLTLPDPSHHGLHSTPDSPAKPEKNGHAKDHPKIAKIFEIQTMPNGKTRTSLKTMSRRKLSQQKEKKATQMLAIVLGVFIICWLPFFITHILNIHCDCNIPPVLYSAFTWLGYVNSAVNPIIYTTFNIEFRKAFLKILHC
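DiscoveRx PathHunter D2 beta-arrestin cells (2,100/well) attached overnight, then compound-stimulated 90 min at 37 C in HBSS/10 mM HEPES/0.1% Tween-20 buffer; beta-galactosidase complementation read by luminescence after 1 h at ambient temperature. Dopamine 57 uM final (EC100) as control.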
TRPML1 agonist: agonists of human TRPML1 channel; Q9GZU1; TRPML1-expressing cells, Ca2+ dye fluorescence, FDSS; host cell line not named in the record; reference of the full effect not given here; actives 0.12% (n = 410,000); activation, % (concentration not given with the values); AID 624414; in the data active = activation above about 50%; inconclusive = about 30% to 50%; inactive = below about 30%; also: 0% is about no effect; the text of the record puts the active cut at 80%
Target sequence (Q9GZU1 whole entry, looked up): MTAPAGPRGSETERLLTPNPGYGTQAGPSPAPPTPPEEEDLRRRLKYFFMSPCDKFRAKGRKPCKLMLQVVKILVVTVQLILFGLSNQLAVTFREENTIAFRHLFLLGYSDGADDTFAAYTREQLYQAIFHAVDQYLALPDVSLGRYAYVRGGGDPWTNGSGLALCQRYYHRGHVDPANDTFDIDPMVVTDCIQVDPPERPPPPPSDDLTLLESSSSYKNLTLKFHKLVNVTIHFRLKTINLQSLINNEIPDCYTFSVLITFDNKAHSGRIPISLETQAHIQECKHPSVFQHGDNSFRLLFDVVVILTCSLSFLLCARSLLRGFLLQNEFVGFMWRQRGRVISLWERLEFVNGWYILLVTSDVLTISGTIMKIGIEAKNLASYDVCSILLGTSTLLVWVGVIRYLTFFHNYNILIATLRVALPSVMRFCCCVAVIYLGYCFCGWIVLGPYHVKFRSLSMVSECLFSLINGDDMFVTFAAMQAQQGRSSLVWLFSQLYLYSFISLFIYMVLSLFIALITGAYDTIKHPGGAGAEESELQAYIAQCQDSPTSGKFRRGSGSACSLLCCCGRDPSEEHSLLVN
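TRPML1-DL cells, Tet-induced overnight (~16 h, 37 degrees C), loaded 45-90 min at room temperature with Ca8 no-wash calcium dye plus quencher. FDSS fluorescence: 10 s baseline, compound pin-transfer, 110 s agonist read, then EC80 54-4 (4uM final) and 110 s antagonist read.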
CtBP-E1A inh: blocks the CtBP interaction with E1A | AID 651724 | AlphaScreen GST-E1A/His-CtBP binding, 1536-well; hits give low values; control for the full effect not named in the record | actives 0.49% (n = 340,000) | activity change, % (no concentration beside the values); in the data active means activity change below about -65%; inconclusive means about -30% to -65%; inactive means above about -30%; also: % is scaled to controls: 0 for no effect and ±100 for the full control effect; compound concentration not given in the record
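Homogeneous bead-based format: GST-tagged E1A captured on glutathione donor beads, His-tagged CtBP on nickel acceptor beads; compounds precede bead addition by 2 h at 37 °C.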
PINK1 expr mod: PINK1 expression modulation. PINK1 immunofluorescence, high-content cytometry, 24 h. Potency, µM (top dose mostly 76.6 µM), without a hit: top-dose activation (PINK1 increase), actives largely listed as activators. actives 0.2% (n = 410,000). AID 624263; active = well fitted activation curve with a large enough effect; inconclusive = small, poorly fitted or top-dose-only effect; inactive = flat fitted curve, though single readings scatter; cell line not stated here;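 also: potency is read from the fitted curve at half-maximal effect; % of control where 0% means no effect; nearly all actives have a fitted effect of over 65% in size; a mitochondrial uncoupler was the plate control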
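PINK1 protein, normally rapidly degraded, was detected by immunofluorescence after 24 hour compound treatment of a stable cell line. Titration data (5 concentrations) came from laser-scanning cytometry, with CCCP-treated wells as controls.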
Six1-Eya2 inh: blocks human Six1 binding to Eya2; Q15475+O00167; activity change, % (test concentration not listed); AlphaScreen GST-Six1/His-Eya2 binding, biochemical; hits give low values; control for the full effect not named in the record; actives 0.56% (n = 360,000); in the data active = activity change below about -65%; inconclusive = about -30% to -65%; inactive = above about -30%; also: % is scaled to controls: 0 for no effect and ±100 for the full control effect; compound concentration not given in the record
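Homogeneous AlphaScreen proximity assay pairing GST-Six1 with His-tagged Eya2 (added as 5X mix: 250 nM and 500 nM) in 50 mM Tris pH 8.0, 300 mM NaCl, 1 mM TCEP. Glutathione donor and nickel acceptor beads; 1 h, 37 °C, dark.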
D2 potentiator: positive allosteric modulators of human D2 dopamine receptor | potentiation, % (test concentration not listed) | actives 0.23% (n = 360,000) | AID 624464 | DiscoveRx D2 beta-arrestin cells, luminescence, 90 min; 100% = 57 uM dopamine signal; active = potentiation of 50% or more; inconclusive = 30% to 50%; inactive = 30% or less;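 also: compound concentration not given in the record; tested on top of an EC20 dose of dopamine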
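D2 cells co-treated with compound plus 50 nM dopamine (EC20) for 90 min at 37 deg C to detect potentiation. Beta-arrestin recruitment was read as enzyme-fragment luminescence after 1 h at ambient temperature. Full response was set by 57 uM dopamine.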
An asterisk follows results filed as active; ? = inconclusive; . = not tested or not shown; & = joins results of further samples; [ ] = dose if it differs, or a comment.

SMILES	D2 agonist	TRPML1 agonist	CtBP-E1A inh	PINK1 expr mod	Six1-Eya2 inh	D2 potentiator
O=C(OCc1ccccc1)C1CCCN1C(=O)c1ccccc1[N+](=O)[O-] (configuration not stated)	-0.6	0.1	-2	-1.4%[38.3 µM]	-2	-5
O=C(CSc1nn(-c2ccc(Cl)cc2)c(=S)s1)N1CCN(C(=O)c2ccco2)CC1	0.1	0.0	-10	-0.7%[38.3 µM]	-5	-5
Cc1cc(C)c(NC(=O)C2CCN(C(=O)c3ccco3)CC2)c(C)c1	-1.6	0.5	4	-0.9%	3	-4
N#CCCN(C(=O)COC(=O)c1cc(=O)[nH]c2ccccc12)c1ccccc1	-0.3	0.7	-2	5.2%	-3	2
CCN(CC)S(=O)(=O)c1ccc(-n2cnnn2)c(C)c1	-3.1	0.4	2	7.5%[38.3 µM]	3	-6
O=C(c1c[nH]c2ccccc12)C(O)C(c1ccccc1)N1CCOCC1 (configuration not stated)	-4.0	-0.2	-5	1.2%	-6	-6
Cc1ccc(C(=O)N2CCCCC2)cc1NC1=C(Cl)C(=O)N(Cc2ccccc2)C1=O	-3.0	-0.4	.	-1.0%	-5	0
COc1ccc(C(=O)CSc2n[nH]c(-c3ccncc3)n2)cc1[N+](=O)[O-]	0.2	1.5	-26	0.3%	?	-13
CCc1ccc(S(=O)(=O)NCc2cn3ccsc3n2)s1	1.2	2.3	2	-2.3%[38.3 µM]	2	-13
Cc1ccc(S(=O)(=O)Nc2cc(Cl)c(O)c3ncccc23)cc1	?	-0.2	-89*	-0.9%	-90*	-3
Cc1ccc(S(=O)(=O)N2CCC(=O)N([C@H](COCc3ccc(Cl)c(Cl)c3)Cc3ccccc3)CC2)cc1	.	4.3	7	-0.4%	6	.
Cc1ccc(-n2nnc3c(=O)n(CC(=O)N4CCCC4)cnc32)cc1	0.2	0.2	6	6.9%[38.3 µM]	2	-4
CCOc1ccc(/C=C/C(=O)OCC(=O)NCCc2ccc(OCC)c(OCC)c2)cc1OC	-2.7	1.2	-4	5.3%	-1	-7
COC(=O)c1cc2c(ccn2-c2ccc(F)cc2)n1CC(=O)OC(C)C	-0.3	0.3	.	4.7%	-19	-16
COc1ccc(NS(=O)(=O)c2cccc(C(=O)N3CCN(c4ccccc4O)CC3)c2)cc1	?	0.2	-3	1.8%	-3	15
O=C(CSc1nnc2c(Cl)cc(C(F)(F)F)cn12)Nc1ccc2c(c1)OCO2	-3.2	-0.5	-4	30%[38.3 µM]	-10	-1
CS(=O)(=O)N1CCCC(C(=O)NCCCN2CCOCC2)C1 (configuration not stated)	-1.1	-0.2	9	-2.4%[38.3 µM]	5	-8
Cc1ccc(-c2nn(C)c(=O)c3ccccc23)cc1S(=O)(=O)NCCN(C)C	-0.4	-0.1	-6	-1.3%	-7	-14
CS(=O)(=O)C1=C(O)C(=O)N(c2ccccc2)C1c1ccccc1 (configuration not stated)	1.8	-0.1	2	-0.9%	4	-11
Fc1ccc(-c2nc3ccc(Br)cn3c2Cc2ccccc2C(F)(F)F)cc1	-1.8	0.6	-3	3.5%	7	-4
O=C(Nc1ccccn1)c1sc2cc([N+](=O)[O-])ccc2c1Cl	1.0	-0.1	.	1.1%	3	-19
N#CCc1ccc(NC(=O)c2ccc(CN3CCc4ccccc4C3)cc2)cc1	-4.9	-0.5	7	13%	-3	-3
CC1C(C)N(C(=O)CCl)c2ccccc2N1C(=O)CCl (configuration not stated)	-3.7	0.2	0	21%	-6	-11
Cc1ccccc1N1CC(O)(c2ccccc2)[N+]2=C1SCC2 (configuration not stated)	-3.3	-0.7	-14	1.8%	3	-27
CCCS(=O)(=O)c1c(S(=O)(=O)CCC)c2c(N)cccn2c1C(=O)c1ccc(Br)cc1	-5.5	1.7	-21	-1.7%	-19	-24
CCOC(=O)c1cccc(NC(=O)CCNS(=O)(=O)c2cccc3nonc23)c1	-2.8	-0.4&2.9	-7	2.2%&-0.5%	0	-6
CC(=O)Nc1ccc(NC(=O)c2ccccc2N(C)S(C)(=O)=O)cc1	-1.5	0.1	3	?	3	5
CC(=O)c1cccc(Nc2nc(-c3ccccc3)nc3ccccc23)c1	1.6	1.1	-5	7.5%	-8	-5
Cc1c(C(=O)N2CCC2)oc2ccc(Cl)cc12	-2.0	-0.8	4	-0.7%	1	-11
Cc1cccc(Nc2nnc(SCC(O)=C(C#N)c3nc4ccccc4[nH]3)s2)c1	-2.5	0.8	-25	3.4%	-24	4
Cc1cc2nc(-c3ccc(NC(=O)C(C)C)cc3)oc2cc1C	-2.1	-0.6	2	-2.4%	1	7
O=C(CCCn1c(=O)[nH]c2ccc(Br)cc2c1=O)NCc1ccc(Cl)cc1	-1.4	-1.1	3	13%	5	1
Cc1nc2ccccn2c1C(=O)NN=C1CCN(C)CC1	-4.7	-0.3	6	4.9%	-2	1
S=C(c1ccc(-c2ccccc2Cl)o1)N1CCOCC1	-1.9	0.1	10	.	?	2
COc1ccc(N2CCN(CCCNC(=O)CN3C(=O)COc4ccccc43)CC2)cc1	-1.7	0.5	-5	-0.8%	-6	-26
CCC(C)NC(=O)c1cnc2n(c1=O)CCS2 (configuration not stated)	0.3	-0.7	6	0.0%	-1	-3
C=CCOc1ccccc1CN1CCC(n2nccc2NC(=O)C2CC2)CC1	-3.8	0.2	-4	-2.0%	6	-20
CC(C)C(=O)O/N=C1\CCS(=O)(=O)c2sccc21	2.5	0.0	34	-0.3%	0	-9
COc1ccc(NC(=O)CCNS(=O)(=O)c2ccc3c(c2)c(=O)n(C)c(=O)n3C)cc1OC	-0.8	0.2	.	1.1%	3	-2
Cc1cc(=O)oc2cc(OCC3CC(c4ccccc4Cl)=NO3)ccc12 (configuration not stated)	-1.6	1.0	-2	?	-5	-6
CCCn1c(N)c(C(=O)COC(=O)/C=C/c2ccc(OC(F)F)c(OC)c2)c(=O)[nH]c1=O	0.7	0.4	-4	?	-9	-3
O=[N+]([O-])c1ccc(N2CCSCC2)cc1O	-3.1	5.0	-9	0.5%	-11	-8
O=C(C1CC1)N1CCN(c2ccc(O)cc2)CC1	9.4	-0.6	2	-1.2%	13	14
COc1ccc(C)cc1NC(=O)C(Sc1nncn1C)c1ccccc1 (configuration not stated)	-1.5	0.3	-7	-0.8%	3	-7
CCOc1cc(N2CCOCC2)c(OCC)cc1NC(=O)c1ccc(OC)cc1	-3.3	-0.9	-11	3.6%	-1	-4
CC(=O)N1CCOc2ccc(S(=O)(=O)NCc3ccc(F)cc3)cc21	9.1	0.3	4	1.9%	-2	-2
CC1CCN(C(=O)c2[nH]cnc2C(=O)NC2CCN(C(=O)OC(C)(C)C)CC2)CC1	0.8	-0.5	-1	0.1%	-1	-7
CC1CN(C(=O)C(C)OC(=O)c2ccc3ncsc3c2)CC(C)O1 (configuration not stated)	-5.2	-0.3	.	2.7%	13	-12
CCOC(=O)c1nn(-c2ccccc2)c(C#N)c1NC(=O)c1nn(CC)cc1Br	-3.5	2.2	-4	?	-3	-13
Cc1ccc2c(c1)C(=O)c1ccccc1CS2=O (configuration not stated)	-0.3	1.4	4	-1.0%	3	-9
NS(=O)(=O)c1cccc(NC(=O)COC(=O)C2(c3cccc(F)c3)CCCC2)c1	4.2	1.1	-9	1.7%	1	7
Cc1c(-c2cccs2)[n+](=O)c2c(n1[O-])CCCCC2	-1.2	-0.1	2	-3.4%	-1	-6
CCc1ccccc1NC(=S)N=Nc1c(O)n(C)c2ccc(S(=O)(=O)N3CCOCC3)cc12	1.4	-0.2	-13	1.8%	-17	4
Cc1ccc(-c2c[n+](CC(=O)Nc3c(C)cccc3C)c3n2CCC3)cc1	-6.0	0.5	10	0.7%	7	-19
CN(CC(=O)Nc1ccc(F)cc1)C(=O)CSc1ncccn1	-0.2	0.7	6	2.2%	2	-1
CCC1(C)Cc2ccccc2-c2nc(NCCCO)n(C)c(=O)c21 (configuration not stated)	-2.6	2.6	3	0.6%	-2	-8
O=C(COc1ccc(S(=O)(=O)NCc2ccccc2)cc1)NCC1CCCO1 (configuration not stated)	-1.9	-0.2	5	-0.1%	4	9
CCOC(=O)Cn1c(CN2CC(C)OC(C)C2)nc2c1c(=O)n(C)c(=O)n2C (configuration not stated)	3.3	0.6	2	0.6%	4	-4
COc1cc(/C=C(\C#N)C(=O)NCC2CCCO2)c([N+](=O)[O-])cc1OC (configuration not stated)	2.9	0.9	-4	3.1%	-4	9
O=C1NCCN(Cc2c(F)cccc2Cl)C1CC(=O)N1CCCCO1 (configuration not stated)	9.1	1.2	.	4.0%	-6	-8

Six1-Eya2 inh, entries above that show a hit
SMILES,D2 agonist,CtBP-E1A inh,Six1-Eya2 inh,D2 potentiator
Cc1ccc(S(=O)(=O)Nc2cc(Cl)c(O)c3ncccc23)cc1,?,-89*,-90*,-3

(cont.)
SMILES	D2 agonist	TRPML1 agonist	CtBP-E1A inh	PINK1 expr mod	Six1-Eya2 inh	D2 potentiator
Cc1ncsc1C(=O)Nc1cccc(C(F)(F)F)c1	-2.2	1.1	6	0.5%	2	-4
O=C(NC1CC(=O)c2sccc21)c1cccc(C(F)(F)F)c1 (configuration not stated)	2.4	0.4	3	-0.3%	3	-3
COC(=O)c1ccc2nccnc2c1	-3.0	0.1	-2	4.6%	13	0
O=C(OCC(=O)N1CCCCCC1)c1ccc(Cl)c(S(=O)(=O)N2CCCC2)c1	-4.7	0.5	3	3.3%	9	-6
COc1ccc(NC(=O)c2cc(-c3ccccc3)on2)cc1OC	0.2	-0.2	.	4.1%	10	-4
Cc1oc(-c2ccccc2Cl)nc1CS(=O)CC(=O)N1CCN(c2ccccc2)CC1 (configuration not stated)	2.7	-0.2	1	-1.3%	1	15
COC(=O)CSc1ncnc2c1cnn2Cc1ccccc1	1.0	-1.2	7	-0.6%	9	11
CC1(C(=O)O)CCCN1C(=O)c1cccc2ccccc12 (configuration not stated)	2.4	-0.3	4	0.3%	1	0
Cc1nn(C)c(C(=O)Sc2ccccc2)c1[N+](=O)[O-]	-2.4	0.4	0	-0.4%	3	-12
COc1ccc(CNC(=O)CSc2ncnc3ccccc23)cc1OC	-4.4	0.4	5	0.8%	-2	-2
O=C(c1nc2ccc(Cl)cn2c1CN1CCC(CO)CC1)N1CCc2ccccc2C1	-2.8	-0.4	-4	-3.4%	-2	-22

Profiles, quoted from the list. Order of values: D2 agonist | TRPML1 agonist | CtBP-E1A inh | PINK1 expr mod | Six1-Eya2 inh | D2 potentiator
`Cc1nn(C)c(C(=O)Sc2ccccc2)c1[N+](=O)[O-]` across the screens: -2.4 | 0.4 | 0 | -0.4% | 3 | -12
`Cc1ncsc1C(=O)Nc1cccc(C(F)(F)F)c1` across the screens: -2.2 | 1.1 | 6 | 0.5% | 2 | -4
`O=C(NC1CC(=O)c2sccc21)c1cccc(C(F)(F)F)c1` (configuration not stated) across the screens: 2.4 | 0.4 | 3 | -0.3% | 3 | -3
`Cc1oc(-c2ccccc2Cl)nc1CS(=O)CC(=O)N1CCN(c2ccccc2)CC1` (configuration not stated) across the screens: 2.7 | -0.2 | 1 | -1.3% | 1 | 15
